YopH PTP inh: YopH tyrosine phosphatase inhibitors, primary screen, biochemical, fluorescence Ex485/Em525; YopH tyrosine phosphatase [Yersinia enterocolitica]; inhibition, %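 (about 10 µM by stock and volumes)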; 140,000 tested, 0.16% active;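 active = inhibition of 50% or more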;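 also: controls were vehicle for no effect and minimum signal wells for full effect; inactives centre near -20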
Mtb bLac sens: beta-lactam sensitization of Mtb H37Rv, H37Rv; M. tuberculosis H37Rv growth with meropenem, percent inhibition; hits of this screen are not shown here; 330,000 tested, 0.27% active; inhibition, % at 25 µM;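 active = about 74% or more and at least 40 points above the plate without the antibiotic, then above 30% in a dose series; inconclusive = first-round hits that could not be retested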;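 also: growth measured after seven days incubation then overnight dye step; 0% = bacteria only wells and 100% = bacteria with antibiotic; twin plates without the antibiotic show which effects depend on it; some results filed as inactive read as strong as hits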
RecA intein inh: Mtb RecA intein splicing inhibitors, primary screen, biochemical, fluorescence, HTS; cell-free RecA intein splicing; inhibition, %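 (about 9 µM by stock and volumes)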; 290,000 tested, 0.75% active; in the data active = inhibition above about 30%; inconclusive = no clear call, values can overlap the other calls;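 also: 0% = vehicle wells and 100% = reference inhibitor control wells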
Target sequence (P9WHJ3 whole entry, looked up): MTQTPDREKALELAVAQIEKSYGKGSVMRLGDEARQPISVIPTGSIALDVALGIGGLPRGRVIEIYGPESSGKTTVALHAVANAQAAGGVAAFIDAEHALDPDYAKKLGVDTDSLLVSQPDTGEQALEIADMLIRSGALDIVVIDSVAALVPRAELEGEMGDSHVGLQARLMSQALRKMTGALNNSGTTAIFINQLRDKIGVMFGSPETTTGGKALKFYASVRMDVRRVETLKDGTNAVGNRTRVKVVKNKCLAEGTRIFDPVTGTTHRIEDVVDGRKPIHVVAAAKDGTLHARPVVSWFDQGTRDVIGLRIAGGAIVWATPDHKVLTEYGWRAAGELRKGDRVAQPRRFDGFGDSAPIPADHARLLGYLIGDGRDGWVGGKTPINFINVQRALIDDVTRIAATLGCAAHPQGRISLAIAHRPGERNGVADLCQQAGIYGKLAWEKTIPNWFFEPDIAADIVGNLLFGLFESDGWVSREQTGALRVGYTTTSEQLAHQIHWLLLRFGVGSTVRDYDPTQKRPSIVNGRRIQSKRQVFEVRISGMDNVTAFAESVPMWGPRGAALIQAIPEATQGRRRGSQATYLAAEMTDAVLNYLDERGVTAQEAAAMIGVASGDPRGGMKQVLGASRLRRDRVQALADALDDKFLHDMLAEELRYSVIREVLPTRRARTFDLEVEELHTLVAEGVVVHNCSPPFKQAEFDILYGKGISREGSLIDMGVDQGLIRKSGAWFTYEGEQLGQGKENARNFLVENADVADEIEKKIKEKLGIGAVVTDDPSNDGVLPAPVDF
Mtb growth: M. tuberculosis H37Rv growth inhibitors, H37Rv strain (AID 1626); M. tuberculosis H37Rv growth inhibition; higher % means a stronger effect; inhibition, % at 10 µM; hits with a dose series show IC50 in µM; 220,000 tested, 0.95% active;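 active = confirmed in a dose series; inconclusive = inhibition above 80% but not taken into the dose series; inactive = below 80% or under 30% at every dose of the series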;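 also: bacteria incubated seven days before Alamar blue readout; 0% = bacteria only wells and 100% = bacteria with antibiotic wells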
Arbovirus anti: antivirals against arbovirus infection, primary screen, cell-based, full library, 10K replicate subset | 200,000 tested, 0.37% active | inhibition, % at 10 µM | arbovirus infection cell-based antiviral screen;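 active = inhibition from about 30%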;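 also: bluetongue infection of BSR cells; cell survival read as ATP light after 72 h; 0% = infected wells without compound and 100% = uninfected wells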
Arbovirus anti repeat: also measured in Arbovirus anti; calls as there; inhibition, %; measured here: 10K subset replicate screen; many hits read low in the repeat;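 first of two repeat runs on a subset; 0% = infected and 100% = uninfected wells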
Numbers without * were called inactive; u = inconclusive; x = no result given. This is a subset; rates above refer to the full screens.

SMILES	YopH PTP inh	Mtb bLac sens	RecA intein inh	Mtb growth	Arbovirus anti	others
Cc1c(S(=O)(=O)N2CC(C)CC(C)C2)c(=O)n(C)c(=O)n1C (stereo unspecified)	x	-3	-0.8	x	x
Brc1ccc(-c2cn3cccnc3n2)cc1	-20	2	x	-2%	-1
CN1C(=O)c2ccccc2C(C(=O)NCCCN2CCCC2=O)C1c1c[nH]c2ccccc12 (stereo unspecified)	-25	5	2.3	5%	2
O=C(NC12CC3CC(CC(C3)C1)C2)N1CCN(C2CCCCC2)CC1	x	-7	-0.9	-3%	3
COc1ccc(C(=O)COC(=O)CCN2C(=O)[C@@H]3[C@H](C2=O)[C@@H]2C[C@H]3C(Br)C2Br)cc1 (stereo partly specified)	-16	6	-6.2	3%	0
Cc1ccccc1NC(=O)CSC(N)=O	-7	8	0.4	-4%	-4	Arbovirus anti repeat=0
COCCN1C(=O)N[C@@H](c2ccco2)C(C(=O)OC)=C1C	x	-6	3.4	-5%	x
COc1ccc(/C=C/c2nc3ccccc3c(=O)n2-c2cccc(C(=O)O)c2)cc1	x	0	1.3	x	x
CCCNC(=O)C1(S(=O)(=O)c2ccccc2)CC=CC1	x	-2	-1.1	x	x
C/C(=N\N=c1/sc2ccccc2n1C)c1ccc(N2CCOCC2)cc1	x	-2	-2.7	-7%	2
O=C(NC1CCCCC1)c1ccc(CS(=O)(=O)c2ccc(Cl)cc2)o1	x	-1	-0.8	x	x
O=C(COc1ccccc1C(=O)c1cnn(-c2ccccc2)c1)Nc1ccccc1	-48	2	0.6	14%	20
C=C(c1ccc(O)cc1)c1ccc(O)cc1	12	4	3.7	3%	2
COCCOC1CCN(C(=O)c2cc(COc3ccc(-n4cncn4)cc3)on2)CC1	x	-4	-1.4	x	x
COc1cc(C2C(C#N)=C(N)Oc3n[nH]c(C)c32)ccc1OC(=O)c1ccccc1 (stereo unspecified)	-36	7	38*	1%	9
C=C1SC(Nc2c(C)cc(C)cc2C)=NC12CCCCC2	x	9	0.0	u	x
O=C(CN1C(=O)NC2(CCCCCC2)C1=O)Nc1ccc(S(=O)(=O)N2CCOCC2)cc1	-6	-17	0.3	-5%	5
S=C(NCc1ccco1)N1CCN(c2ccccc2Cl)CC1	x	3	9.1	7%	0
COc1cc2c(cc1OC)CN(S(=O)(=O)/C=C/c1ccccc1)CC2	x	4	-1.9	x	x
Cc1nn(C)cc1CNC(=O)Nc1ccc(Cl)cc1	37	6	1.0	-13%	4
Clc1ccc2nc(CSc3nncn3-c3ccccc3)cn2c1	-35	5	3.7	4%	-1
CCOc1ccccc1CN(Cc1ccco1)S(=O)(=O)c1ccc(-n2cnnn2)c(OC)c1	-3	x	-0.3	-1%	-9
CC(C)(C)OC(=O)CC1(C#N)c2ccccc2C(Br)=CN1C(=O)c1ccccc1 (stereo unspecified)	x	-6	0.9	x	x
COc1ccccc1NC(=O)c1nn(-c2ccc(OC(F)(F)F)cc2)ccc1=O	-9	0	0.0	14%	-3
O=C(Nc1cc([N+](=O)[O-])ccc1N1CCCC1)c1ccccc1	x	4	-2.0	4%	-5
Cn1cccc1/C=N/NC(=O)Cc1ccccc1	x	-7	-2.1	1%	x
CCc1noc(C)c1C(=O)Nc1cc(S(=O)(=O)N(CC)CC)ccc1N1CCCC1	x	-7	-2.2	x	x
Cc1ccc2c(c1)N(C(=O)CCC(=O)NCc1cccc(Br)c1)CC(C)O2 (stereo unspecified)	x	1	4.1	x	x
COc1ccccc1Cn1c(CCCO)nc2ccccc21	-22	-2	2.5	2%	8
CNc1cc(-n2nc(C)cc2-c2ccccc2)ncn1	-43	-8	-2.7	-11%	-5
CCC(C)n1ncn(-c2ccc(N3CCN(c4ccc(OC)cc4)CC3)cc2)c1=O (stereo unspecified)	-7	3	-1.7	4%	-8
C=C1CCC[C@]2(C)C[C@H]3OC(=O)C(CN4CCCCC4CO)[C@H]3CC12 (stereo partly specified)	x	24	1.4	x	x
Fc1ccc(CNC(=S)Nc2cccc(Cl)c2)cc1	-35	-1	6.5	2%	-20
COc1cc(C(=O)NCc2ccc(C)cc2)ccc1OC(F)F	-9	-4	-0.9	6%	-2
CCCCC(=O)C1=C(N2CCCC2)CC(C)(C)CC1=O	27	-1	8.8	-5%	8
CCCN1CCN(C(=S)Nc2sc(CC)cc2C(=O)OC)CC1	x	99	4.5	47%	-13
COc1ccc(OC)c(Cc2nnc(CCC(=O)NC3CCCC3)o2)c1	x	-1	-0.9	-10%	-1
COc1ccc(NC(=O)CCC(=O)Nc2nnc(C3CCCCC3)s2)c(OC)c1	x	4	-0.5	x	x
Nc1c2c(nc3ccccc13)N(C1CCCCC1)CC2	x	0	-0.5	2%	17
Cc1ccc(C(=O)Nc2ccccc2C(=O)N2CCCC2)cc1[N+](=O)[O-]	-34	9	1.2	3%	-3

Four structures already listed, ordered by SMILES length, low to high:
SMILES	YopH PTP inh	Mtb bLac sens	RecA intein inh	Mtb growth	Arbovirus anti	others
Cc1nn(C)cc1CNC(=O)Nc1ccc(Cl)cc1	37	6	1.0	-13%	4
CCCNC(=O)C1(S(=O)(=O)c2ccccc2)CC=CC1	x	-2	-1.1	x	x
O=C(NC12CC3CC(CC(C3)C1)C2)N1CCN(C2CCCCC2)CC1	x	-7	-0.9	-3%	3
COc1ccccc1NC(=O)c1nn(-c2ccc(OC(F)(F)F)cc2)ccc1=O	-9	0	0.0	14%	-3

Additional structures:
SMILES	YopH PTP inh	Mtb bLac sens	RecA intein inh	Mtb growth	Arbovirus anti	others
NC(=O)c1ncc(C(F)(F)F)cc1Oc1cccc(F)c1	-37	-1	2.1	-4%	3
Cc1ccc(SCc2nc3ccccc3[nH]2)cc1	-42	-4	-0.1	4%	5
Cc1nc(SCN2C(=O)c3ccccc3C2=O)n[nH]1	-22	-7	1.6	-9%	0
CCC(C)NC(=O)c1cc(Sc2nnc(C)s2)nc2ccccc12 (stereo unspecified)	-28	-5	-4.1	3%	-9
CC(=O)OC1CC(C)(C)N(OC(=O)c2ccccc2)C(C)(C)C1	-19	3	1.3	4%	4
CCOC(=O)c1c(C)[nH]c(C)c1C(=O)COC(=O)c1cccc(S(=O)(=O)NC)c1	-45	86	1.0	8%	3
COc1ccccc1CN(C(=O)c1cnccn1)C(C(=O)NC1CCCCC1)c1cc(OC)c(OC)c(OC)c1 (stereo unspecified)	x	1	-0.2	x	x
COCCn1cc(C(=O)N2CCC(C)CC2)c2c3ccccc3n(C)c2c1=O	-34	0	1.2	2%	5
O=C(CNC(=O)c1ccco1)OCc1ccc(C(=O)Oc2ccccc2)cc1	-25	100	2.4	3%	7
Cc1cccc(NC(=O)C(C)N2C(=O)C3C4CC(C(Br)C4Br)C3C2=O)c1 (stereo unspecified)	-20	-22	5.1	-2%	1
CSc1nc(NNC=O)cc(Oc2ccc(NC(C)=O)cc2)n1	x	5	-1.8	x	x
COc1ccc(C(CC(=O)O)NS(=O)(=O)c2ccc(C)cc2)cc1 (stereo unspecified)	-1	-21	-0.3	-14%	-1
COCCN(CCOC)C(=O)c1ccc(SCc2ccc(C)cc2)c([N+](=O)[O-])c1	x	-4	13	5%	2
CN(C)/C=N/c1cc(=O)n(C)c(=O)n1Cc1ccccc1	-35	-4	-3.6	-4%	-7
CCOCCCNC(=O)C1CCC(CNS(=O)(=O)c2ccc(F)cc2)CC1 (stereo unspecified)	-12	3	-0.9	4%	3	Arbovirus anti repeat=0
O=C(Nc1ccccn1)C1CCN(S(=O)(=O)c2ccc3c(c2)OCCCO3)CC1	x	-12	-0.6	x	x
Cc1ccc(-c2nnc3sc(CCc4ccccc4)nn23)cc1	6	88	0.3	1.6µM*	1
O=C1S/C(=C\c2ccc(O)c([N+](=O)[O-])c2)C(=O)N1c1ccccc1Cl	x	78	6.0	6%	5
CCc1ccc(NC(=O)CSc2ccc(-c3sc(C)nc3C)nn2)cc1	x	10	82*	x	x
Cc1cc(C2=NNC(=NC3CC3)SC2)c(C)n1Cc1ccco1	-14	58	x	-6%	-5
O=C(Cc1ccccc1)NCC(=O)OCC(=O)c1ccc([N+](=O)[O-])cc1	3	5	-11	-14%	-11
C/C=C(\C)CN1CCC(n2nccc2NC(=O)CCOc2ccccc2)CC1	x	-5	0.0	x	x
Cc1ccc(S(=O)(=O)c2ccc(Cl)cc2)cc1S(=O)(=O)N(C)CC(=O)O	-20	2	2.2	2%	2
C=C1N(c2ccccc2)C(=O)OC1(C)C	-11	-5	-3.2	-6%	5
Cc1ccc(C(=O)N(Cc2nc(-c3ccc(C)cc3)no2)C(C)C)cc1	-8	-5	-12	-1%	-2	Arbovirus anti repeat=-2
CCS(=O)(=O)N1CCC(c2nc(-c3ccc(C)cc3)no2)CC1	-18	1	x	x	1
Cc1noc(C)c1C(=O)OCC(=O)NC1CC1	-17	-1	-4.7	3%	3
CCC1=[N+](C)c2cccc3cccc(c23)N1C	x	0	-3.9	0%	-6
O=C(c1ccc2oc(CCCc3ccccc3)nc2c1)N1CCCC(CCCO)C1 (stereo unspecified)	x	0	3.6	x	x
Cc1ccc(-c2cc(C(=O)NCCN3CCOCC3)no2)cc1	-9	15	-1.4	-12%	-1
O=C(Cc1ccccc1)NCC(=O)N1CCN(c2ccccc2F)CC1	x	8	1.5	x	x
COc1ccc(OC)c(S(=O)(=O)Nc2cc3c4c(c2)CC(=O)N4CCC3)c1	x	-8	10	x	x
Cc1cc(C(F)F)n2ncc(C(=O)NCCc3ccccc3Cl)c2n1	-22	3	3.0	-2%	-11
CC(C)(C#CCN1CCCCC1)OCCOC(c1ccccc1)c1ccccc1	-22	-7	3.9	5%	4
CN(CC(=O)Nc1ccc2c(c1)OCCO2)S(=O)(=O)c1ccc(F)cc1	x	3	-2.1	x	x
CCOc1cc(C2CC(=O)N3CN(C4CCCCC4)CSC3=C2C#N)ccc1O (stereo unspecified)	-20	2	2.7	-5%	-1	Arbovirus anti repeat=8
COc1ccc(CNC(=O)CCCNS(=O)(=O)c2cccc3nonc23)cc1	-24	u	4.0	-5%	1	Arbovirus anti repeat=-1
CCOC(=O)Cc1csc(NS(=O)(=O)c2ccc3c4c(cccc24)C(=O)N3CC)n1	4	-14	-6.3	-12%	-2
CC1(C)CC(NC(=O)c2c(N)no[n+]2[O-])CC(C)(C)N1	x	0	-6.8	-2%	7
O=C(N1CCN(c2ccccc2F)CC1)C1(S(=O)(=O)c2ccc(Cl)cc2)CC1	x	-3	2.7	x	x

The final 4 records of the section above are carried over, then new ones follow:
SMILES	YopH PTP inh	Mtb bLac sens	RecA intein inh	Mtb growth	Arbovirus anti	others
COc1ccc(CNC(=O)CCCNS(=O)(=O)c2cccc3nonc23)cc1	-24	u	4.0	-5%	1	Arbovirus anti repeat=-1
CCOC(=O)Cc1csc(NS(=O)(=O)c2ccc3c4c(cccc24)C(=O)N3CC)n1	4	-14	-6.3	-12%	-2
CC1(C)CC(NC(=O)c2c(N)no[n+]2[O-])CC(C)(C)N1	x	0	-6.8	-2%	7
O=C(N1CCN(c2ccccc2F)CC1)C1(S(=O)(=O)c2ccc(Cl)cc2)CC1	x	-3	2.7	x	x
Nc1nnnn1/N=C/C(Br)=C/c1ccccc1	-3	100	2.8	u	-32
O=S(=O)(Cc1noc(-c2ccc(OC(F)(F)F)cc2)n1)c1ccc(F)cc1	x	-3	0.1	-5%	x
CCOC(=O)c1[nH]c(C)c(C(=O)Nc2ccc(C)cc2C)c1C	-20	0	1.0	-3%	-7	Arbovirus anti repeat=-8
COc1ccc(NC(=O)c2cc3sccc3n2Cc2ccc(F)cc2)cc1OC	-92	-9	-2.7	-1%	3
CC/C=C/C(=O)N1CC2(CC(c3cccc(NC(=O)CC)c3)=NO2)C[C@H]1C(N)=O (stereo partly specified)	x	-10	4.7	-11%	x
CCC1=C(OC(=O)N(CC)CC)N2C(=O)OC(=NCCc3c[nH]c4ccccc34)[C@]2(Cc2ccccc2)[C@H]2C1=CC[C@H]1C(=O)N(c3ccccc3)C(=O)[C@H]12	x	-4	3.8	5%	x
CCOc1ccc(C(=O)N2CCCC2)cc1OC	-24	-21	1.5	3%	-2
CC1CCc2nc(NC(=O)c3ccco3)sc2C1 (stereo unspecified)	-18	46	1.1	-10%	3
Cc1cc(C)cc(-n2ccnc2SCC(=O)Nc2nccs2)c1	-14	52	-4.8	-4%	1
O=C1Cc2ccccc2C(=O)N1OCc1ccc(Cl)cc1	x	-3	29	2%	9
O=C(c1ccccc1)N1CCN(C(=O)c2ccc3c(c2)OCCO3)CC1	x	1	1.6	1%	4
CC(NC(=O)C12CC3(C)CC(C)(CC(C)(C3)C1)C2)C(=O)O (stereo unspecified)	x	50	-3.7	-7%	1
Cc1ccc(OCC(=O)N(Cc2ccc(C)o2)C2CCS(=O)(=O)C2)cc1 (stereo unspecified)	x	15	0.6	x	x
